Compound activity as filed in PubChem BioAssay.
Sa growth inh: S. aureus growth inhibition at 42 and 30 °C, primary screen, LtaS inhibitor project, RN4220, two temperatures. 170,000 compounds, 0.53% hits. relative growth, % (concentration not given with the values). OD600, 20 h, 42 °C; stronger effect = lower value. AID 720641, 2013;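 active = growth at 42 °C up to 50% and 20 or more points under that at 30 °C, or under 10% at both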;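 also: 300 nL library stock went into each well; scaled to the means of positive and negative controls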
HCMV NEC inh: inhibitors of HCMV UL50-UL53 interaction, biochemical, HTRF. HCMV UL50-UL53 nuclear egress complex (human cytomegalovirus). normalized percent inhibition. inhibition, % (no concentration beside the values). 190,000 compounds, 0.15% hits;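 active = both replicates at 50% or more, plus weaker picks with an unusually low signal ratio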;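 also: stock transfer was 100 nL into about 20 µL; 0% = negative control wells and 100% = wells with untagged competitor protein; inactives centre near -12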
GIV Gai3 FP: inhibitors of GIV peptide binding to Galpha-i3, primary screen, biochemical, fluorescence polarization, FITC-GIV GBA peptide, rat Galphai3; Guanine nucleotide-binding protein G(i) subunit alpha-3 (Rattus norvegicus), P08753; 90 min; stronger effect = lower value; scaled: aluminum fluoride 0%, vehicle 100%; percent of control (FP), % (concentration not given with the values); 210,000 compounds, 0.42% hits; AID 1224905, 2016;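 active = replicate mean at 85% of control or lower, very high polarization wells dropped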;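 also: wells of about 15 µL received 100 nL stock; the first replicate is given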
Target sequence (P08753 whole entry, looked up): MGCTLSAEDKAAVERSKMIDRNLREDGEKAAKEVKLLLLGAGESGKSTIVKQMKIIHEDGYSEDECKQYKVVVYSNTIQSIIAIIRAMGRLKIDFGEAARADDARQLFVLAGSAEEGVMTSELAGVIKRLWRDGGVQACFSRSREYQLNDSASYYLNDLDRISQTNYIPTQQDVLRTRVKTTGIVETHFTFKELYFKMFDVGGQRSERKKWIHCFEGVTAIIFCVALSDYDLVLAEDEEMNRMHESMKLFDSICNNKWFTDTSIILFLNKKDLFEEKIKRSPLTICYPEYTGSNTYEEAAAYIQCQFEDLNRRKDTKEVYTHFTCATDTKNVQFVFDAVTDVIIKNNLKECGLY
Sa growth inh second temp: second read-out of Sa growth inh, no call of its own (marks repeat the call); relative growth, %; measured here: growth at 30 °C;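 optical density after 20 h as mean of two plates; 100% = untreated growth and lower means inhibition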
* marks the source's active call; other numbers are inactive results; x = no result given.

SMILES,Sa growth inh,Sa growth inh second temp,GIV Gai3 FP,HCMV NEC inh
NC(=O)C1OC(c2ccccc2)OC1C(N)=O (stereo not given),92,98,x,14
COc1ccc(OC)c(NC(=O)CSC2=Nc3ccccc3C3=NC(CC(=O)NCc4ccco4)C(=O)N23)c1 (stereo not given),77,89,99,x
CC(=O)Nc1c(C)cc(C)cc1-c1nnc(SCC(=O)Nc2ccccc2Cl)[nH]c1=O,x,x,105,-8
O=C(Nc1cccc(C(=O)OCc2cc(=O)n3nc(C4CC4)sc3n2)c1)c1ccccc1,87,91,108,x
CC(C(=O)O)n1ncc2ccccc2c1=O (stereo not given),96,92,101,-15
CCCCc1ccc(NC(=O)CC)cc1,83,79,101,x
COc1ccc(-c2cc(C(=O)NC3CCCC3)c3ccccc3n2)cc1,103,77,102,x
O=C(CN1CCN(Cc2ccccc2)C(=O)C1=O)NC1CCCC1,x,x,104,-3
c1ccc2[nH]c(SN3CCCCC3)nc2c1,85,93,102,x
Cc1cc(C)c2c(=O)cc(C(F)(F)F)oc2c1,115,89,101,x
Cc1nc(N)[nH]c(=O)c1CCC(=O)O,99,93,x,-3
O=C(O)CCC(=O)N1CCSc2ncccc21,104,96,107,-2
COC(=O)C1=C(C)N(C2CCCC2)C(=O)C1(NC(C)=O)C(F)(F)F (stereo not given),109,89,102,-9
O=C1CCCC2=C1C(c1ccccc1O)C1=C(CCCC1=O)O2,95,88,x,-4
COc1ccc(C2c3c(n(C)c4ccccc34)C(=O)N2CC(=O)Nc2ccc(C)cc2Cl)cc1 (stereo not given),95,92,103,x
CCOc1ccc(/C=C/C(=O)NC(C)C)cc1,106,78,102,-43
CCc1ccccc1NC(=O)c1cnn2c(C(F)(F)F)cc(-c3ccc(OC)c(OC)c3)nc12,89,94,108,-5
O=C(NC1CCCC1)c1cnc2sc3c(n2c1=O)CCCCCC3,x,x,105,-22
O=C(CSc1ccc(-c2ccncc2)nn1)Nc1ccccc1,89,75,102,x
O=C(NCc1ccc2c(c1)OCO2)c1ccc(N2CCCCS2(=O)=O)cc1,98,93,105,-13
COc1ccccc1-c1cc(C(=O)N2CCN(c3ccccc3)CC2)no1,93,74,101,-19
COc1ccc(N2CCN(C(C)=C3C(=O)c4ccccc4C3=O)CC2)cc1,112,91,98,-36
COc1ccc(CCNC(=O)CN2C(=O)COc3ccc(S(=O)(=O)N4CCCC4)cc32)cc1OC,107,87,105,-46
O=C(CN1C(=O)C(c2ccc(F)cc2)=NC12CCCCCC2)Nc1ccc(F)c(Cl)c1,102,87,104,-25
CCOC(=O)c1ccccc1NC(=O)C1COc2ccccc2O1 (stereo not given),x,x,105,-3
Cc1cc(=O)oc2cc(OCc3ccc(C(=O)O)cc3)ccc12,80,92,x,-18
CCn1c(=O)c2sccc2n2c(CCCC(=O)NCc3cccnc3)nnc12,95,99,103,x
Cc1cccc(NC(=O)c2sc3[nH]c(=O)c(C(=O)O)cc3c2N)c1C,105,84,105,x
CC(C)COc1cccc(OCC(=O)Nc2ccc(F)cc2)c1,80,79,x,-11
Cc1cccc(C2N(Cc3ccccc3)CCCN2Cc2ccccc2)n1,119,83,104,6

Entries of single compounds as entered above:
COc1ccc(CCNC(=O)CN2C(=O)COc3ccc(S(=O)(=O)N4CCCC4)cc32)cc1OC across the screens: Sa growth inh: 107; Sa growth inh second temp: 87; GIV Gai3 FP: 105; HCMV NEC inh: -46
Cc1cccc(NC(=O)c2sc3[nH]c(=O)c(C(=O)O)cc3c2N)c1C across the screens: Sa growth inh: 105; Sa growth inh second temp: 84; GIV Gai3 FP: 105; HCMV NEC inh: x

(next part)
SMILES,Sa growth inh,Sa growth inh second temp,GIV Gai3 FP,HCMV NEC inh
Cc1c(NC(=O)Nc2ccc(F)c(Cl)c2)c(=O)n(-c2ccccc2)n1C,108,92,100,54
CSc1sc(-c2ccnc(SCC(N)=O)n2)c(-c2ccccc2)c1C#N,96,85,99,-11
O=C(NC1CC1)c1ccc(S(=O)(=O)c2ccc(Cl)cc2)nc1,x,x,100,-19
CC(Oc1ccccc1)c1nnc(N)s1 (stereo not given),108,100,108,-5
COC(=O)Cn1ncn2nc(-c3cccs3)cc2c1=O,97,83,102,x
CCOc1ccc(CCNC(=O)c2ccc3c(c2)N(Cc2ccc(C)cc2)CCS3)cc1,112,81,100,-14
Oc1ccc(CN2CCCCC2)c2cccnc12,62,63,102,x
COc1ccc(C(=O)N(c2ccc(C)cc2)S(=O)(=O)c2ccc(C)cc2)cc1,124,103,103,x
COc1ccc(S(=O)(=O)N(CCc2ccccc2)CC(=O)Nc2cc(C)cc(C)c2)cc1OC,95,90,106,-38
Cc1ccc(C)c(NC(=O)N2CCN(c3nnc(C)c4c(C)n(-c5ccccc5)nc34)CC2)c1,115,80,103,x
O=C1CCC(=O)N1CN(Cc1ccccc1)Cc1ccccc1,87,75,103,-19
O=C(NN1CCCCC1)C12CC3CC(CC(O)(C3)C1)C2,90,94,x,-11
CN(Cc1ccccc1)Cc1nc2ccccc2n1C,107,83,98,-2
Cc1ccccc1NC(=O)N1CCOc2ccccc21,x,x,104,9
Cn1c(C(=O)NCCCN2CCCC2=O)cc2sccc21,109,90,106,x
Cc1ccc2c(c1)c1c(n2CCC(=O)O)C(=O)CCC1,108,75,102,x
O=C(CSc1ncc(-c2ccccc2)[nH]1)Nc1cccc(Br)c1,92,50,104,-10
COc1ccc(Nc2nc(C)c(NC(=O)C(C)(C)C)c(Nc3ccc(OC)cc3)n2)cc1,x,x,106,18
Cc1ccc(N(CC(=O)NCc2ccc(F)cc2)S(=O)(=O)c2c(C)nn(C)c2C)cc1,101,90,104,-24
CCOc1ccc(N2C(=O)N(Cc3cccc(OC)c3)C3CS(=O)(=O)CC32)cc1 (stereo not given),x,x,99,0
S=c1oc(-c2ccncc2)nn1CCc1ccncc1,97,85,102,-10
Cc1cccc(CC(C(=O)Nc2ccccc2)c2nn[nH]n2)c1 (stereo not given),82,109,101,26
CC(C)Oc1ccc(-c2cn3nc(C4CC4)sc3n2)cc1,98,83,100,-12
Cc1ccc(CNC(=O)c2nnc(Cc3ccc(F)cc3)o2)cc1,91,97,97,7
COc1ccc(Br)cc1CN1C(=O)c2ccccc2C1C(=O)NC1CCCCCC1 (stereo not given),95,84,101,-2
O=C(CN1CCSc2ccccc21)N1CCN(c2ccc(F)cc2)CC1,98,97,106,x
O=C1NC(=O)N(C2CCCCC2)C(=O)/C1=C/c1ccc(O)cc1,113,92,94,34
CCN(CC)CCCNC(=O)CN1N=C(c2ccc(OC)cc2)CCC1=O,112,97,103,x
COc1ccc(-c2cc(-c3ccccc3)c(C#N)c(SC3CCCCC3=O)n2)cc1 (stereo not given),86,88,97,x
NNC(=O)[C@H]1[C@@H]2C[C@@H]3c4[nH]c5ccccc5c4CCN3C[C@H]2CC[C@H]1O,96,81,139,-58
O=C(CC1N=C2c3ccccc3N=C(SCC(=O)Nc3cccc(C(F)(F)F)c3)N2C1=O)NCc1cccs1 (stereo not given),117,75,103,-13
Cc1ccc(-c2[nH]c(=O)n3ccncc23)s1,101,99,x,-115
CCCCN(C)C(=O)Cn1ncc2c3ccccc3n(C)c2c1=O,105,84,108,x
CCCCOC(=O)c1ccc(Nc2ncnc3[nH]ncc23)cc1,86,90,97,x
CCOC(=O)C1CCCN(C(=O)Cn2ncc3c4ccccc4n(Cc4ccccc4)c3c2=O)C1 (stereo not given),92,80,110,-3
COc1ccc(CNC(=O)Nc2ccc3c(c2)N(Cc2ccccc2)C(=O)c2ccccc2S3)cc1,x,x,101,-6
Cc1cc(-c2ccccc2)nc2cc(C(=O)O)nn12,96,98,111,-58
O=C(O)CNC(=O)c1ccccc1OC(F)F,89,91,x,-3
CCOCc1c(C(=O)OCC(=O)c2ccccc2)oc2ccccc12,91,89,x,-30
C=CC(=O)NCC1OCCc2ccccc21 (stereo not given),73,90,103,5
COC(=O)c1c(SC)nc2ccccc2c1OCc1ccc(Cl)cc1,80,87,99,x
Cc1ccc(S(=O)(=O)NC(=O)c2c(C)cc3ccccn23)cc1,101,70,x,-57
Cc1ccc(-c2csc(CO)n2)cc1,127,95,106,-7
CC(=O)NCCOc1ccc(C)cc1,98,86,108,10
C=CCc1cccc2ccc(=O)oc12,104,103,103,6
CSc1sc(-c2ccnc(SCC(=O)c3ccc(Cl)cc3)n2)c2c1C(=O)CCC2,101,86,103,-20
Nc1nnc(CC(=O)N2CCCC2)o1,87,75,103,-15
CCOC(=O)C1=NN(C(=O)Cc2ccccc2)C(O)(c2ccc(Cl)cc2)C1 (stereo not given),x,x,105,12
Cc1c(C(=O)NC(C)C)oc2c1-c1[nH]ncc1CC2,83,72,69*,70*
CCOC(=O)c1nnn(CC(=O)NC(=O)Nc2ccccc2F)c1C(=O)OCC,106,88,98,18

New compounds follow.
SMILES,Sa growth inh,Sa growth inh second temp,GIV Gai3 FP,HCMV NEC inh
CCCCNc1nc2c(S(=O)(=O)c3ccc(C)cc3)nnn2c2ccsc12,106,86,103,x
COc1ccc(C(=O)NCC(c2ccc(N(C)C)cc2)N2CCCC2)c(OC)c1 (stereo not given),81,87,100,x
O=C(NCCc1ccccc1)c1cc(-c2ccc(Cl)c(Cl)c2)on1,86,85,101,-19
N#CC(C#N)=Cc1ccc(-c2ccc(S(N)(=O)=O)cc2)o1,98,77,137,-65
COc1ccc(-n2c(C)cc(C(=O)COC(=O)c3ccc(C#N)cc3)c2C)cc1,95,100,x,-4
Cc1ccccc1Cn1c2ccccc2c2cnn(CC(=O)N3CCC(C)CC3)c(=O)c21,111,86,104,-4
COc1cc(CNc2ccc(C(=O)O)cc2)ccc1OCc1ccc(Cl)cc1,100,98,106,x
Cc1ccc(NC(=O)c2cc3c(=O)oc4ccccc4c3n2C)cc1F,100,87,104,x
Cc1ccc(S(=O)(=O)NC(=O)c2cc(C)n(CCN(C(C)C)C(C)C)c2C)cc1,72,91,x,-10
O=C(Nc1c[nH]c(=O)[nH]c1=O)NC1CCCC1,81,85,100,-30

Continued (two carried over from the part before).
SMILES,Sa growth inh,Sa growth inh second temp,GIV Gai3 FP,HCMV NEC inh
Cc1ccc(S(=O)(=O)NC(=O)c2cc(C)n(CCN(C(C)C)C(C)C)c2C)cc1,72,91,x,-10
O=C(Nc1c[nH]c(=O)[nH]c1=O)NC1CCCC1,81,85,100,-30
C=CCn1c(=O)c2ccc(C(=O)NC(C)CC)cc2n2c(=O)n(CC(N)=O)nc12 (stereo not given),x,x,104,13
Cc1ccc(S(=O)(=O)N(CCC#N)CC2CCCO2)cc1 (stereo not given),103,89,103,-36
O=C(C1CCC(Cn2c(=S)[nH]c3ccccc3c2=O)CC1)N1CCCC1 (stereo not given),95,102,105,-3
O=C(CSc1nnc(-c2cccs2)o1)N1c2ccccc2CCc2ccccc21,104,85,102,-10
Cc1cc(C)cc(NC(=O)CCc2c(C)nn(-c3ccc(N4CCCC4)nn3)c2C)c1,78,93,98,x
O=C(O)CSc1c(-c2cccs2)[nH]c2ccccc12,87,67,x,-33
Cc1ccccc1-c1coc2cc(O)ccc2c1=O,119,79,125,-12
CC(C)OC(=O)c1ccc(Cn2nnc3sc4c(c3c2=O)CCCC4)cc1,98,94,103,-2
O=C(O)CN(Cc1ccccc1)S(=O)(=O)c1ccc(F)cc1,130,96,113,5
CCc1c(C)nc(N)nc1N1NC1=S,117,100,105,-5
CN(C)C(=O)CCN1C(=O)C2C3C=CC(C3)C2C1=O (stereo not given),104,81,101,-13
CCCc1cc(=O)[nH]c(SCc2nc(-c3ccccc3F)no2)n1,106,103,103,x
Cc1ccc(/C=N/N=C2\SCC(=O)N2CC2CC2)cc1,104,99,111,9
COc1cccc(Cn2c(CNC(=O)c3cc([N+](=O)[O-])ccc3Cl)nc3cccnc32)c1,97,90,121,x
CC(C)N1CN(CCc2ccccc2)c2nc3ccccc3n2C1,77,47,98,-44
CCCCN(CC)S(=O)(=O)c1ccc2[nH]c(=O)cc(C(=O)NCc3ccccc3)c2c1,97,98,109,6
CCOC(=O)c1cnc2ccc(OC)cc2c1Nc1ccc(OCc2ccccc2Cl)cc1,75,74,98,13
COc1cc(NC(=O)C2CCN(c3nnc(C)c4c(C)n(-c5ccccc5)nc34)CC2)cc(OC)c1,91,91,102,x
CCOc1ccc(C2(C)CC(C)(C)Nc3ccccc32)cc1 (stereo not given),73,102,x,-9
CC1(C)COC(c2cccn2Cc2c(F)cccc2Cl)=N1,x,x,107,1
Cc1nccn1-c1nc(-c2ccc(F)cc2)cc(C(F)(F)F)n1,97,63,104,x
